AID923: qHTS Assay for Allosteric/Competitive Inhibitors of Caspase-1: Spectroscopic Profiling in AFC Spectral Region; Potency, µM (titrated, usually from 57.5 µM), for inactives: at the top dose fluorescence increase, most hits filed as activators; AID 923, 2007; compound fluorescence, AFC spectral region (405/520 nm); almost no hit is shown here; 75,000 tested, 1.1% active; active = well fitted activation curve with a large enough effect; inconclusive = small, poorly fitted or top-dose-only effect;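 note: potency is the fitted concentration of half-maximal effect; 0% is about no effect; scaled to a free AFC standard on each plate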
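Titrations up to 57 uM read every 20 sec for 3 min (405/520 nm) with 50 nM caspase 1 and 5 uM Ac-WEHD-AFC, pH 7.5 HEPES buffer. Fluorescence-vs-time intercept gave baseline, scaled against on-plate AFC standard.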
A488 autofl: A488 region autofluorescence; max dye equivalency, M; AID 591; 59,000 tested, 0.1% active; compound autofluorescence, A488 spectral region, dye equivalency; stronger effect = higher value; active = above 10 nM dye equivalent; inconclusive = 1 to 10 nM; inactive = 1 nM or less; about half of its hits are not listed in these tables;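 note: highest value over a series up to 38 µM; compound alone in buffer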
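Autofluorescence read at ex 480/em 540 nm after 15 min RT in 100 mM Tris pH 8.0; compound signal normalized to A488 standard series on each plate, reported as dye-equivalent concentration at each test concentration.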
TSHR ag: TSH receptor (human) agonism. Potency, µM (doses to about 57.1 µM), for inactives: top-dose activation, usual class: activators. 73,000 tested, 0.48% active. HEK293-CNG-TSHR cells (CNG channel as cAMP sensor), membrane potential dye, cAMP. AID 926. P16473; active = well fitted activation curve of enough size with the parental cells flat; inconclusive = any curve in the parental cells; inactive = parental cells flat and receptor cells flat or falling; note: potency is the fitted concentration of half-maximal effect; % of control where 0% means no effect; weak receptor curves with flat parental cells got no call and are not listed
Target sequence (P16473 whole entry, looked up): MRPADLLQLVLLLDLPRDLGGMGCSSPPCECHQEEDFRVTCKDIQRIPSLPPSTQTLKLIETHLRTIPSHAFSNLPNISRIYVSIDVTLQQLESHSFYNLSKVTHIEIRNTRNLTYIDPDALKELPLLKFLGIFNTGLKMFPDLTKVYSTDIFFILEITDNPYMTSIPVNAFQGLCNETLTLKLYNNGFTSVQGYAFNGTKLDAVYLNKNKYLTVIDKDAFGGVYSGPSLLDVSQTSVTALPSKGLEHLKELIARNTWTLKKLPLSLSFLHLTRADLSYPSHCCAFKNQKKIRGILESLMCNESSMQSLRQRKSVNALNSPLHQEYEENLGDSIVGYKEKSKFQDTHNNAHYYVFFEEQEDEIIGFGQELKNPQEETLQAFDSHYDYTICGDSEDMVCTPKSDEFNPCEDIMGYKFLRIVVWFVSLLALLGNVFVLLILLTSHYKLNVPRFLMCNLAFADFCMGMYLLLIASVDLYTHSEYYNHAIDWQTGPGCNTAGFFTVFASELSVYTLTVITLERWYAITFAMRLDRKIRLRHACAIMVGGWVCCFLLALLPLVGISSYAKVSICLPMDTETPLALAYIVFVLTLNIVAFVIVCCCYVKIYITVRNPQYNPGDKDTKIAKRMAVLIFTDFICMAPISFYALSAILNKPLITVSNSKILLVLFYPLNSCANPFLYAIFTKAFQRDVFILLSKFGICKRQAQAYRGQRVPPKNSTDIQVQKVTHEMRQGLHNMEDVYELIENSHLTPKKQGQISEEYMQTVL
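HEK 293 cells stably expressing TSHR and a modified CNG channel, with CNG-only parental cells as counterscreen, were preloaded 60 min at room temperature with membrane potential dye containing 100 uM RO 20-1724. Compound exposure was 30 min, and depolarization was read as fluorescence at 590 nm.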
A647 fluor: A647 region autofluorescence | Compound fluorescence, A647 channel (570/671 nm), Tris buffer | max dye-equivalent concentration, M | 59,000 tested, under 10 active; active means above 1 µM dye equivalent; inconclusive means 0.1 to 1 µM; inactive means 0.1 µM or less;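 note: values scaled relative to a standard on each plate; highest value over a series up to 38 µM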
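Fluorescence read (570 nm ex, 671 nm em) after 15 min RT incubation of compounds in 100 mM Tris buffer, pH 8.0; values expressed as dye-equivalent concentration against a six-point A647 standard series on each plate.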
Resorufin autofl: compounds fluorescent in resorufin spectral region; 59,000 tested, 0.04% active; max dye-equivalent concentration, M; Compound fluorescence, resorufin region 547/598 nm, buffer; stronger effect = higher value; active = above 10 nM dye equivalent; inconclusive = 1 to 10 nM; inactive = 1 nM or less; a few of its hits are not listed in these tables; note: highest value over a series up to 38 µM
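Compounds in 100 mM Tris buffer, pH 8.0, incubated 15 min at room temperature, then read with 547 nm excitation and 598 nm emission filters. Fluorescence was converted to dye-equivalent concentration using an on-plate six-point resorufin standard curve.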
* = called active by the depositor; i = inactive; u = inconclusive; x = no result given; & = joins results of further samples; [ ] = another dose, or the depositor's remark. A portion of the library (hit frequency here may not be typical).

smiles	A488 autofl	A647 fluor	TSHR ag	AID923	Resorufin autofl
O=C(OCCN1C(=O)c2ccccc2C1=O)c1cc(S(=O)(=O)N2CCOCC2)ccc1Cl	i	1.21e-08	x	1.4%	i
CCOC(=O)N1CCN(S(=O)(=O)c2ccc(Br)s2)CC1	i	1e-09	4.3%	-2.2%	i
CCOC(=O)C1CCN(C(=O)CSc2cc(=O)n(C)c3ccccc23)CC1	i	1.76e-08	4.2%	-1.5%	i
CCN1C(=O)C(O)(CC(=O)c2ccc(-n3cccc3)cc2)c2ccccc21 (configuration not stated)	i	1e-09	27.6%	-1.1%	i
FC(F)(F)Oc1ccc(Nc2nc3ccccc3o2)cc1	i	1e-09	-2.1%	0.6%	i
COc1ccc(OC)c(C2=NOC(C(=O)Nc3cccc(C(C)=O)c3)C2)c1 (configuration not stated)	i	1.82e-08	-3.4%	-1.9%	i
COc1cc(C)c(C(C)C)cc1S(=O)(=O)N1CCN(C)CC1	i	1e-09	-2.1%	0.1%	i
O=C1C2CC=CCC2C(=O)N1CC1CCCO1 (configuration not stated)	i	1e-09	-3.5%	2.8%	i
O=C(O)C1CCC(CNCc2cccnc2)CC1 (configuration not stated)	i	1.37e-08	3.5%[11.4 µM]	0.1%	i
O=C(NC1CCC(NC(=O)C(F)(F)C(F)F)CC1)C(F)(F)C(F)F (configuration not stated)	x	x	16.7%	0.3%	x
Cc1cccc(C)c1NC(=O)CSCCO	i	5.87e-08	-4.9%	0.3%	i
O=C(C1CCN(S(=O)(=O)c2cccs2)CC1)N1CCCCCC1	i	1e-09	4.8%	0.9%	i
O=c1cc(-c2ccccc2O)oc2cc(O)cc(O)c12	i	4.1e-09	-3.8%	-1.3%	i
CCC(C)NS(=O)(=O)c1cccs1 (configuration not stated)	i	1.47e-08	-4.7%	9.6%	i
c1ccc(CC2CNc3ccccc3CN2)cc1 (configuration not stated)	i	3e-09	9.0%	1.3%	i
COc1ccccc1-n1c(CNC(=O)c2ccccc2)nnc1SCC(=O)Nc1nnc(C)s1	x	x	u	-0.8%	x
CN(C)c1ccc(C(=C2C=CC(=[N+](C)C)C=C2)c2ccccc2)cc1	i	5.75e-08	4.8%[11.4 µM]	-0.8%[11.5 µM]	i
CCN(CC)C(=O)C1CCN(Cc2ccc(Br)cc2)CC1	i	3.73e-08	2.5%	-1.1%	i
CO[C@H]1COC(=O)[C@H](C)NC(=O)[C@@H](C)COC(=O)C/C=C\[C@@H]1C	x	x	-6.5%[11.4 µM]	0.4%[11.5 µM]	x
CCOc1ccc2[nH]c(C)c(CN3CCCCC3)c(=O)c2c1	i	5.5e-09	-1.9%	0.1%	i
COc1ccccc1-c1nccc(Nc2ccc(F)cc2)n1	i	4.06e-08	u	5.0%	i
CCCc1cc(=O)n2[nH]c(CCc3ccccc3)nc2n1	i	1.99e-08	7.2%	1.6%	i
O=c1[nH]c(=O)n(CCO)c2nnn(Cc3ccccc3)c12	i	8.3e-09	6.9%	0.9%	i
COc1ccc(S(=O)(=O)CCc2nc3ccccc3s2)cc1	x	x	9.5%	-0.5%	x
O=C(Nc1cccc(F)c1)N1CC2(CCN(C(=O)c3ccncc3)CC2)C1	i	1e-09	24.6%	7.9%	i
CCOC(=O)c1ccc2[nH]cc(C(C)=O)c(=O)c2c1	i	1.11e-08	-4.7%	11.1%	i
COc1ccc(NC(=O)Cn2nnc(C(N)=O)c2N)c(OC)c1	i	3.8e-09	-1.4%	1.3%	i
CN(C)C(=O)c1ccc(-c2cc(-n3ccnc3)ncn2)cc1	i	3.1e-08	11.2%	0.8%	i
CC(C)C(c1nnnn1C1CCCC1)N1CCN(C(=O)c2ccco2)CC1 (configuration not stated)	i	3.26e-08	u	0.8%	i
C/C(=N\O)C1(C)N(O)C(C)(C)C(c2ccc(Br)cc2)=[N+]1[O-] (configuration not stated)	i	1e-09	4.2%	-0.5%	i
Cc1cc(NC(=O)CCOc2ccccc2)no1	i	1.39e-08	-15.1%	-2.4%	i
COC(=O)c1c(NC(=O)C2CC2)sc2c1CCN(C(C)=O)C2	x	x	5.5%	-1.1%	x
Clc1ccccc1-c1ccc2ncnc(NCc3cccnc3)c2c1	i	1e-09	u	1.7%	i
O=C(Nc1ccccc1)N1CCCC2(CCN(S(=O)(=O)c3ccccc3)CC2)C1	i	1e-09	12.7%	0.2%	i
CCN(CC)CCCN1C(=O)c2oc3ccccc3c(=O)c2C1c1cccnc1 (configuration not stated)	i	1.7e-09	-6.6%	2.8%	i
CC1(C)[N+]([O-])=C2C(=[N+]([O-])C1(C)C)c1ccccc1/C2=N\O	i	1.7e-09	-2.4%	-0.2%	i
COc1ccccc1CNC(=O)c1ccc(CNc2c(N3CCCC3)c(=O)c2=O)cc1	x	x	-1.2%	-1.4%	x
COC(=O)COc1ccc(S(=O)(=O)Nc2ccc3c(c2)OCO3)cc1	i	1e-09	-7.6%	-0.7%	i
COc1ccc2c(c1)c(C(=O)N1CCN(C)CC1)c(C)n2-c1ccccc1	i	1e-09	23.2%	1.6%	i
COc1ccc(-c2cc(C(F)F)n3ncc(C(=O)N4CCSCC4)c3n2)cc1	i	1e-09	u	15.7%	i
CC(=O)C1=C(O)C=C(c2ccco2)CC1c1ccco1 (configuration not stated)	i	1e-09	u	0.8%	i
Cc1onc(-c2ccccc2Cl)c1C(=O)NCc1ccco1	x	x	5.6%	3.4%	x
Cc1cccc(C(=O)NC2CC3CCCC(C2)N3C(=O)NC2CCCCC2)c1 (configuration not stated)	i	1.1e-09	0.7%	0.9%	i
Cc1scc(C(=O)Nc2ccon2)c1-c1ccccc1	i	1e-09	19.9%	0.9%	i
CCCCC1CN2C(CCC(C)C2c2ccc(Br)cc2)C(=O)O1 (configuration not stated)	x	x	u	1.9%&-2.9%&-0.3%[11.5 µM]	x
CC1CCN(Cc2nc3c(c(=O)n(C)c(=O)n3C)n2CCc2ccccc2)CC1	i	4.21e-08	u	1.3%	i
Cc1ccc2c(NC(=O)C3CC3)cccc2n1	i	1e-09	-2.6%	0.3%	i
O=C(c1ccco1)N1CCC2(CCN(Cc3ccccc3)CC2)CC1	i	3.25e-08	3.1%	0.2%	i
CS(=O)(=O)N(CC(=O)NCc1ccc2c(c1)OCO2)Cc1ccccc1	i	1e-09	13.1%	3.1%	i
COc1ccc(OC)c(NC(=O)C(CC(C)C)NC(=O)C2CCCCC2)c1 (configuration not stated)	i	1e-09	u	-0.8%	i
COc1ccc(NC(=O)CSC2=NC(=O)CC(C)=N2)cc1	i	4.6e-09	-1.2%	1.2%	i
CC1CCN(C(=O)c2ccc3c(c2)OCCO3)CC1	i	4.2e-09	x	-1.0%	i
COc1ccc(CNc2cc(C)nc3ncnn23)c(OC)c1	i	1.16e-08	u	-0.9%	i
Cc1ccc(-c2cn(S(=O)(=O)c3cccc4nsnc34)nc2N)cc1	i	2.21e-08	-34.7%[inhibitor]	1.0%	i
Cn1c(CN2CCOCC2)nc2cc(NC(=O)c3ccc(F)cc3)ccc21	i	1e-09	3.8%	0.6%	i
Cc1cc(-c2ccco2)n(CC(=O)O)n1	i	5.16e-08	-7.7%	0.6%	i
CCOC(=O)N1CCN(c2nc(N(c3ccccc3)c3ccccc3)nc(-n3ccnc3)n2)CC1	i	1.4e-09	u	-0.4%	i
Cn1c(=O)[nH]c(=O)c2c1nc(N1CCCCCC1)n2Cc1cccc2ccccc12	i	1.74e-08	-50.1%[inhibitor]	-4.1%	i
CCn1nc(NC(=O)c2ccncc2)c2cc3cccc(C)c3nc21	i	1.6e-09	-10.6%	0.8%	i
Cc1cc(/C=C(/C#N)c2cccc(F)c2)c(C)n1-c1cccnc1	i	3.6e-09	x	5.6%	i

Next section; the last two above are carried over.
smiles	A488 autofl	A647 fluor	TSHR ag	AID923	Resorufin autofl
CCn1nc(NC(=O)c2ccncc2)c2cc3cccc(C)c3nc21	i	1.6e-09	-10.6%	0.8%	i
Cc1cc(/C=C(/C#N)c2cccc(F)c2)c(C)n1-c1cccnc1	i	3.6e-09	x	5.6%	i
Cc1cc(NC(=O)CSc2nc3c(c(=O)n2-c2ccccc2)SC(C)C3)no1 (configuration not stated)	x	x	-5.9%	3.3%	x
O=C(CSc1n[nH]c(-c2ccncc2)n1)Nc1ccccn1	i	1e-09	-1.1%	-1.6%	i
COc1ccccc1CNC(=O)C(NC(=O)C1CCCCC1)C(C)C (configuration not stated)	i	1.92e-08	2.3%	-1.3%	i
O=C(c1ccc(Cl)cc1)c1ccccc1C(=O)N1CCOCC1	i	1.96e-08	2.8%	-2.4%	i
COC(=O)c1ccc(C23CC2(C(NP(=O)(c2ccccc2)c2ccccc2)c2ccccc2)C3)cc1 (configuration not stated)	x	x	u	1.1%	x
COc1ncc2nc(-c3cc(F)cc(F)c3)c(=O)n(C[C@H]3CCCO3)c2n1	i	1e-09	u	2.3%	i
O=C1NC(c2ccncc2)Nc2sc3c(c21)CCCC3 (configuration not stated)	i	1.4e-08	x	4.1%	i
CCOC(=O)Cc1cc(=O)n2[nH]c(C)cc2n1	i	3.5e-09	9.8%	0.8%	i
CCSc1nc(O)c(CC)c(=O)n1C(C)CC (configuration not stated)	x	x	u	-0.7%	x
c1ccc2c(c1)Cn1nnnc1-2	i	4e-08	2.5%	-0.2%	i
O=C(c1csc2ccccc12)N1CCCCCC1	x	x	10.9%	-1.9%	x
CSc1nnc2c3c4c(sc3nc(-n3nc(C)cc3C)n12)COC(C)(C)C4	i	1.33e-08	17.0%	1.5%	i
COc1ccc(CNC(=O)c2ccc(=O)oc2)cc1OC	i	1.63e-08	3.7%	-1.1%	i
O=C1CC(c2ccc(F)c(Br)c2)C2=C(CCCC2=O)N1 (configuration not stated)	i	4.35e-08	18.7%	-0.1%	i
Cc1ccc(S(=O)(=O)NCCCCCC(=O)NC(C)(C)CO)cc1	i	1.5e-09	3.2%	-0.2%	i
CCOC(=O)c1sc(Nc2nc3c(OC)cccc3s2)nc1C	i	2.98e-08	-0.7%	7.3%	i
Cc1nn(-c2ccc(F)cc2)c2sc(C(=O)N3CCCCCC3)cc12	i	1e-09	x	-0.1%	i
CCOC(=O)c1ccccc1Nc1cc(C)nc2nc(C)nn12	x	x	14.8%	-0.2%	x
COc1cc2c(cc1OC)[C@H](c1ccccc1)CN(C)CC2	i	8e-09	12.8%	-1.0%	i
CCCn1c(SCC(=O)Nc2nc3c(s2)CCCC3)nc2c1c(=O)n(C)c(=O)n2C	i	7.8e-09	u	1.0%	i
COc1ccc(CCNC(=O)CCCn2c(SCC#N)nc3ccccc3c2=O)cc1OC	i	2.71e-08	u	-0.1%	i
O=C(Nc1ccc(F)cc1F)c1cccnc1	i	1e-09	-3.4%	-0.9%	i
COc1ccc(C(=O)N2CCC(n3c(C)nc4cc(F)ccc43)CC2)cc1OC	i	5e-09	3.6%	-0.8%	i

High-throughput results deposited in PubChem BioAssay by National Center for Advancing Translational Sciences (NCATS).
